TRPML1 ag – agonists of human TRPML1 channel; Q9GZU1; TRPML1-expressing cells, Ca2+ dye fluorescence, FDSS; host cell line not named in the record; reference of the full effect not given here; activation, % (concentration not given with the values); hit rate 0.12% among 410,000; in the data active = activation above about 50%; inconclusive = about 30% to 50%; inactive = below about 30%; further: 0% is about no effect; the text of the record puts the active cut at 80%
Target sequence (Q9GZU1 whole entry, looked up): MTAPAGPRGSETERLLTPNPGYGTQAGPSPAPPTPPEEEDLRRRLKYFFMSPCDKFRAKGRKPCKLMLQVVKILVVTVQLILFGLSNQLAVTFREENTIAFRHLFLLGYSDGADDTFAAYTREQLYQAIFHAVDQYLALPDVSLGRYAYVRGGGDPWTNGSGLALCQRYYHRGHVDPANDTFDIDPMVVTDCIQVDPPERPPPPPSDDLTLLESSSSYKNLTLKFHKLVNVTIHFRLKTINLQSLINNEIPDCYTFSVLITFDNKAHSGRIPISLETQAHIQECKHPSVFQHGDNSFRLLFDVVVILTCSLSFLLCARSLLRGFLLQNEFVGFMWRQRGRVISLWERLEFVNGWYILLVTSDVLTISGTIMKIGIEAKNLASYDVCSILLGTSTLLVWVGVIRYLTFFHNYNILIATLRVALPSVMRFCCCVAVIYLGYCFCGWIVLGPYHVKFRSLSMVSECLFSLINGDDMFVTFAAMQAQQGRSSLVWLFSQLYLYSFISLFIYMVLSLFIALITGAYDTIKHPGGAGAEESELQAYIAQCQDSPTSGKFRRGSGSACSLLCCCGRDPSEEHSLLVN
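Tetracycline-induced TRPML1-DL cells are seeded and incubated overnight before loading with a no-wash Ca2+ dye and quencher. Agonist activity is taken from the 110 s fluorescence read following compound pin-transfer on an FDSS, before EC80 54-4 challenge.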
ClpP mod – qHTS Assay for Activators of ClpP; purified B. subtilis ClpP, FRET peptide cleavage, 20 min; Potency, µM (doses to about 57.5 µM), for the others: at the highest dose activity change, negative = active; hit rate 1.9% among 340,000; active = well fitted falling curve with a large enough effect; inconclusive = small, poorly fitted or top-dose-only effect; inactive = no such curve, though single readings can be large or run the other way; further: potency means the concentration at half of the fitted maximal effect; the source files actives as falling curves though it sought activators and does not explain the sign; nearly all actives have a fitted effect of over 65% in size; many hits overshoot -100%
Target sequence (P80244 whole entry, looked up): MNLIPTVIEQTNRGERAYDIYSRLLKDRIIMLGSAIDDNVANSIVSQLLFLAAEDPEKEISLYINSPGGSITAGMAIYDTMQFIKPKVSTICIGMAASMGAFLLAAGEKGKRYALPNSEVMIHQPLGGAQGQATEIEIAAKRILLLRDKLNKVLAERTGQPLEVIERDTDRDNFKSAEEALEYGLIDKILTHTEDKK
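Buffer: 100 mM Tris/HCl pH8, 100 mM KCl, 0.05% low protease BSA, 2.5% glycerol, 0.01% Tween-20. ClpP 10 microg/mL final; 20 min RT; delta FRET normalized to ADEP and DMSO controls.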
TRPML1 inh – inhibitors of human TRPML1 channel | TRPML1-inducible cells, Ca2+ dye fluorescence, FDSS; hits give low values; inhibition of EC80 agonist-evoked calcium signal | activity change, negative = inhibition, % (test concentration not listed) | hit rate 0.02% among 390,000; in the data active means activity change below about -50%; inconclusive means about -30% to -50%; inactive means above about -30%;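 further: stimulus is agonist 54-4 at its EC80 concentration; on the % scale 0 is the no-effect control and ±100 the full control effect; compound concentration not given in the record; the text of the record puts the active cut at -80%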
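TRPML1-DL cells, Tet-induced overnight (~16 h, 37 °C) at 1,500 cells/well, were loaded with Ca8 no-wash dye plus quencher for 45-90 min at room temperature. Compounds were pinned during FDSS kinetic reading; agonist 54-4 at EC80 (4 uM final) then added.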
Menin-MLL FL inh – inhibitors of human menin-MLL interaction, wild-type MLL peptide; Fluorescence polarization, fluorescein-MLL peptide displacement from menin; FP activity change, % at 61.4 µM; 290,000 tested, under 10 active; AID 1766; inconclusive = falling polarisation curve, or a change in total fluorescence; inactive = total fluorescence flat and polarisation flat or rising; no compound was filed as active; the % refers to the polarisation; negative = inhibition;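 further: % of control where 0% means no effect; inhibitors lower the polarisation; unlabelled MLL peptide was the positive control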
gsp ag – activates gsp, the McCune-Albright syndrome mutation; AID 624287; hit rate 0.13% among 340,000; gsp mutant cells, cAMP HTRF, 30 min; control for the full effect not named in the record; Potency, µM (series often up to 76.9 µM), without a hit: at the top dose activation (cAMP increase), hits mostly activators; active = well fitted activation curve with a large enough effect; inconclusive = small, poorly fitted or top-dose-only effect, or another doubt; inactive = no such curve, though single readings can be large or run the other way; cell line not stated here;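 further: phosphodiesterase inhibitor Ro 20-1724 added with compounds to block cAMP breakdown; potency means the concentration at half of the fitted maximal effect; nearly all actives have a fitted effect of over 60% in size; about a fifth of the inactives were tested at one dose only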
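Cells stably selected in G418 were plated at 2000/well, grown 16-24 hr, then given compounds in DMSO with the PDE inhibitor […] (300 uM solution added) for 30 min at 37C; cAMP was read by HTRF.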
gsp antagonist – antagonists of gsp mutant (McCune-Albright syndrome); AID 624288; hit rate 0.4% among 340,000; Potency, µM (doses to about 76.9 µM), inactives show at the top dose activity change, negative = inhibition, actives largely listed as inhibitors; gsp-mutant cells, cAMP HTRF, 30 min; control for the full effect not named in the record; active = falling curve of any shape with a large fitted effect; inconclusive = falling curve, mostly with a smaller effect; inactive = flat or rising curve; cell line not stated here;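 further: intracellular cAMP measured with PDE inhibitor Ro 20-1724 present during compound exposure; potency means the concentration at half of the fitted maximal effect; on the % scale 0 is the no-effect control and ±100 the full control effect; nearly all actives have a fitted effect of over 65% in size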
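Cells, 2000/well, grown 16–24 h in DMEM 10% FBS with 0.5 mg/ml G418, then compounds plus […] (300 uM addition stock), 30 min at 37C. cAMP read by HTRF (cAMP-d2 and anti-cAMP antibody-K in lysis buffer) after 30 min RT.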
Active calls of the source: *; u = inconclusive; x = not tested or not shown; & = joins results of further samples; [ ] = remark or other dose.

SMILES	TRPML1 ag	ClpP mod	TRPML1 inh	Menin-MLL FL inh	gsp ag	gsp antagonist
COc1cccc(CNC(=O)CCC2CCCN(C(=O)C3CCOCC3)C2)c1 (configuration not stated)	-0.5	0.4%	30.5	2.0	-23.6%	8.9%
Cc1ccc(OCc2ccc(C(=O)Nc3nc4ccccc4n3C)o2)c([N+](=O)[O-])c1	2.6	-2.4%	17.6	5.3	-3.5%	-4.2%
CCN(CC)S(=O)(=O)c1ccc2nc(NC(=O)c3cccs3)sc2c1	1.0	u	14.3	2.4	14.8%	u
CCN(CC)S(=O)(=O)c1ccc2c(c1)c(=O)c(C(=O)N1CCc3ccccc3C1)cn2C	-0.7	0.1%	1.0	-0.4	u	7.0%
CCC(=O)N1CCc2cc(Br)cc(S(=O)(=O)NCC3CCCO3)c21 (configuration not stated)	0.0	0.6%	8.3	1.7	18.8%	-0.3%
Cc1cc(C)c(-c2cc(NC(=O)CSc3nncn3C)n(-c3ccccc3)n2)cc1C	-0.7	-0.4%	20.1	1.5	-47.3%[inhibitor]	-22.5%
Cc1cccc2cc(C(c3nnnn3CC3CCCO3)N3CCc4ccccc4C3)c(=O)[nH]c12 (configuration not stated)	-0.5	u	-4.9	-0.3	-49.6%[inhibitor]	-1.8%
COCC(=O)NC1CCN(S(=O)(=O)c2cccc(C(C)=O)c2)CC1	-1.1	x	6.8	9.2	-15.2%	11.4%
CCOCCc1nnc(NC(=O)CS(=O)(=O)c2ccc(C)cc2)s1	0.0	x	6.3	-0.6	-1.5%	-0.9%
CC(C)c1ccc(OCC(=O)Nc2ccc(OC(F)(F)F)cc2)cc1	-0.3	-1.1%	-15.2	4.0	-51.7%[inhibitor]	5.3%
Cc1cccc(N2CCN(C(=O)CSc3nnnn3C3CC3)CC2)c1C	0.1	0.8%	-1.5	x	-17.1%	-4.1%
COC(=O)CCC(=O)Nc1ccccc1C(=O)Nc1ccccc1	0.1	0.6%	-2.1	5.5	14.6%	-6.1%
COc1ccc(OC(=O)N2CCOCC2)cc1	-0.9	-1.5%	38.3	4.1	-18.8%	3.0%
S=c1[nH]nc(C2CCCCC2)n1/N=C/c1ccccn1	0.2	0.6%	-4.4	-8.5	14.4%	-1.2%
COc1cc(/C=C2\N=C(c3ccccc3)OC2=O)ccc1OC(C)=O	x	-10.0%	x	u	-18.7%	-10.0%
Cc1ccc(CN2CCN(Cc3ccccc3C(F)(F)F)CC2)cc1	-0.2	0.9%	-11.6	0.5	-10.9%	3.6%
CCc1nn(CC(=O)N(C)Cc2ccccc2)c(=O)c2cc3sccc3n12	0.8	-21.9%	-1.1	x	x	x
CC(=O)c1ccc(NC(=S)N(Cc2ccccc2)C(C)C2CC2)cc1 (configuration not stated)	-0.4	7.4%	50.8	6.4	u	-20.1%
CCOC(=O)N1CC=C2C(C#N)=C(N)C(C#N)(C#N)[C@H](c3cccs3)C2C1 (some centres not stated)	-0.1	1.4%	5.7	u	8.7%	16.2%
CSc1ncccc1C(=O)OCC(=O)c1ccc(Br)s1	1.3	0.9%	30.0	6.5	-5.4%	63.2%[activator]
COc1ccc(N(Cc2cc(=O)[nH]c3ccccc23)C(=O)c2ccco2)cc1	1.1	-10.6%	-4.5	4.4	-12.4%	-4.3%
CC(=O)OCCCNc1cc(Sc2nc3ccccc3s2)c2nonc2c1[N+](=O)[O-]	1.1	1.5%	-8.4	-3.0	13.3%	12.8%
Cc1cc(Nc2cccc(C(F)(F)F)c2)nc2ccc(NC(=O)Cc3ccc(Cl)cc3)cc12	-0.8	3.7%	8.9	x	x	x
Cc1ccc(NC(=O)N/C=C/c2ccco2)c(C)c1	0.1	-4.9%	-5.5	u	-3.6%	-8.7%
O=C(Cc1c[nH]c2ccccc12)Nc1ccc(N2CCOCC2)cc1	-0.2	x	-12.4	6.0	-11.5%[15.4 µM]	5.5%
New compounds follow.
SMILES	TRPML1 ag	ClpP mod	TRPML1 inh	Menin-MLL FL inh	gsp ag	gsp antagonist
O=C(COc1ccc(CO)cc1Cl)Nc1ccc(F)cc1	-0.2	-4.6%	-3.6	0.1	1.5%	8.9%
COc1cccc(S(=O)(=O)NCc2ccc(C(=O)Nc3cccc(Cl)c3)cc2)c1	1.0	-1.0%	24.7	1.1	2.0%	u
Cc1ccc(C)c(N2CCN(C(=O)c3ccc(NC4=NC5CS(=O)(=O)CC5S4)cc3)CC2)c1 (configuration not stated)	-0.6	1.9%	-2.2	4.2	-20.3%	0.6%
COc1ccc(N2CCCn3c2nc2c3c(=O)n(Cc3ccccc3)c(=O)n2C)c(OC)c1	3.6	-2.0%	31.6	-1.2	24.0%[15.4 µM]	-45.1%
O=C(O)Cc1sc(Nc2ccc(Cl)cc2)nc1-c1cccs1	-0.1	x	0.5	-1.8	-21.3%	-16.6%
Cc1cc(C)nc(Nc2cccc(Cl)c2)n1	1.0	-1.4%	12.2	-4.2	-23.4%	-10.3%
COc1ccccc1-c1nnc(SCC(=O)O)n1C	0.1	0.2%	-18.1	-0.4	5.4%	18.7%
Cc1ccc(N2C(=O)C(CC(=O)Nc3ccccc3)N(CCC3=CCCCC3)C2=O)cc1 (configuration not stated)	0.7	-3.4%	-1.6	x	x	x
CCCC(c1nnnn1Cc1ccccc1)N1CCC(C(N)=O)CC1 (configuration not stated)	-0.8	-2.3%	-10.5	2.9	11.1%	8.4%
COc1ccccc1N1CCN(S(=O)(=O)CC23CCC(CC2=O)C3(C)C)CC1 (configuration not stated)	0.2	1.4%	23.7	-1.2	u	7.1%
O=C1NCCn2ccc(=O)cc21	-0.1	1.9%	3.0	6.5	-28.5%	6.9%
CCOC(=O)c1sc(/N=C/Nc2nc(C)c(C(=O)OCC)s2)nc1C	0.3	-23.1%	8.1	7.3	u	-14.6%
O=C(c1ccsc1)N1CCCC(Nc2ccc(F)c(F)c2)C1 (configuration not stated)	0.6	-0.6%	-12.0	-13.7	-6.2%	6.5%
C/C(=N\NC(=O)CNc1cccc2ccccc12)c1ccccc1	3.4	-7.8%	-0.2	3.2	u	7.4%
COc1cc(OC)cc(C(=O)NCCc2ccc(OC)c(OC)c2)c1	0.6	0.4%	10.9	x	-10.8%	4.0%
CC(NC(=O)C1CCC1)c1ccc(Br)cc1 (configuration not stated)	-0.5	-1.4%	0.3	-0.6	-22.2%	-13.0%
Fc1ccc(-c2cn3ccccc3n2)cc1	x	3.4%	x	0.3	-3.1%	7.3%
Cc1ccc(C(=O)N2N=C(CC(C)C)CC2(O)C(F)(F)F)o1 (configuration not stated)	-0.5	x	-11.7	-5.7	-9.5%	3.5%
COC(=O)c1ccc(N)cc1O	0.4	-3.2%	20.4	-3.3	0.1%	-2.8%
Cc1cc(C)nc(SC2CCOC2=O)n1 (configuration not stated)	-0.6	-7.5%	12.9	0.9	15.3%	4.7%
CCOC(=O)C1CCN(S(=O)(=O)c2ccc3c(c2)CC(C)N3C(=O)C2CCC2)CC1 (configuration not stated)	1.7	0.1%	7.1	-1.1	2.2%	-4.7%
O=C(c1ccco1)N1CCN(c2nc3c(Cl)cccc3s2)CC1	1.7	-2.1%	-15.8	x	x	x
C=CCN1C(=O)C(CC(=O)Nc2ccc(OC)cc2)SC1=Nc1ccc(S(N)(=O)=O)cc1 (configuration not stated)	0.5	x	11.7	1.7	2.2%	3.8%
O=C(NC1CCCCC1)C(c1ccncc1)N(C(=O)Cn1nnc(-c2cccs2)n1)C1CCCC1 (configuration not stated)	3.0	-6.7%	25.7	2.0	-43.1%[inhibitor]	-9.5%
COc1ccc(N2CC(C(=O)NCCc3ccc(Cl)cc3)CC2=O)cc1 (configuration not stated)	-1.3	-2.6%	3.1	0.2	-6.3%[15.4 µM]	9.2%
Continued:
SMILES	TRPML1 ag	ClpP mod	TRPML1 inh	Menin-MLL FL inh	gsp ag	gsp antagonist
CSc1ccc(CNC(=O)C2CCN(c3nnc(-n4cccc4CNc4ccc(C)cc4)s3)CC2)cc1	0.0	-4.1%	-5.7	x	x	x
O=C1CC2(CCN(C(=O)c3ccc(F)c(F)c3)CC2)Oc2ccccc21	0.1	x	-18.7	x	-5.9%[15.4 µM]	-7.9%
CN1CCN(C(=O)c2cc(Cl)cc(Cl)c2NC(=O)c2ccco2)CC1	1.4	-0.3%	0.0	-2.7	36.7%	14.3%
CCOC(=O)c1c(NC(=O)/C=C/C(=O)O)sc(C)c1-c1ccc(C)c(C)c1	1.2	-2.3%	0.0	0.9	14.1%	2.2%
COCCN(CCOC)C(=S)Nc1ccccc1Cl	-0.2	x	5.5	-2.4	-3.2%[15.4 µM]	-11.1%
Cc1nc2c(C)cccc2c(SC(=N)N)c1CC=C(Cl)Cl	0.9	-19.5%	-0.3	2.6	29.6%	-4.8%
CC(O)CNc1nc2c(c(=O)n(Cc3ccc(Cl)cc3)c(=O)n2C)n1C (configuration not stated)	u	-9.4%	-9.2&-0.8	-4.0	-10.1%	-9.7%
CCn1c(SCC(=O)NC2CC2)nc2ccccc21	-0.3	0.3%	-7.0	x	-114.0%[inhibitor]	x
Cc1cccc(NC(=O)C2CCCN(C(=O)Nc3ccc(F)cc3)C2)c1 (configuration not stated)	0.4	0.4%	-9.3	4.7	-32.6%[inhibitor]	8.7%
CCOC(=O)c1cnc(-c2ccccc2O)nc1Cl	-0.6	x	7.6	11.4	11.6%[15.4 µM]	-12.1%
CCn1cc(C(=O)O)c(=O)c2cc(S(=O)(=O)N(C)C)ccc21	-0.4	-0.6%	1.4	-0.3	-1.5%	7.1%
O=C(CN1C(=O)CSc2ccc(S(=O)(=O)N3CCOCC3)cc21)NCc1c(F)cccc1Cl	-0.2	-2.2%	5.7	x	15.0%	x
O=C(CCSCCC(=O)N1CCCC1)N1CCCC1	0.4	1.4%	-4.5	1.3	6.4%	-2.5%
Cc1c(Cl)cccc1NC(=S)N(Cc1ccco1)C(C)c1ccccn1 (configuration not stated)	-0.9	0.0%	3.1	2.8	-2.7%	-16.6%
COCCN(C(=O)CCC(=O)Nc1ccccn1)C(C(=O)NC(C)(C)C)c1ccc(OC)cc1 (configuration not stated)	-0.6	-4.1%	8.0	x	7.0%[15.4 µM]	-1.5%
OCCC1CN(Cc2c(F)cccc2Cl)CCN1C1CCCC1 (configuration not stated)	0.0	x	10.0	-0.6	-4.4%	0.4%
O=C(CCCN1C(=O)CCC1=O)Nc1ccc2c(c1)OCCO2	-0.4	-0.3%	7.3	0.8	-11.6%	3.3%
N/C(=N\OC(=O)c1ccc(Cl)c([N+](=O)[O-])c1)c1ccccn1	1.1	x	11.5	1.2	-6.5%[15.4 µM]	-30.9%
CCc1ccc(-n2c(C)n[nH]c2=S)cc1	0.4	-8.1%	7.7	-0.5	2.7%[15.4 µM]	4.1%
COc1ccc(OCC(=O)Nc2ccc3c(c2)nc2n3CCSC2)cc1	-0.1	3.3%	-16.5	1.0	-21.7%	-11.1%
CC(C(=O)N1CCOCC1)N1C(=O)c2ccccc2C1=O (configuration not stated)	0.0	-1.9%	53.4	1.6	-2.6%	0.1%[15.4 µM]
